Screens (PubChem)
MLL AF4-AF9 inh – blocks AF4 peptide binding to human AF9 | P42568 | AlphaScreen, biotin-AF4 peptide binding to FLAG-AF9 | inhibition, % at 10 µM | 350,000 tested, 0.47% active;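 active = every replicate reaching a set inhibition limit, whatever the replicate mean, cut at about 25% in these data; inconclusive = mean inhibition reaches that limit but some replicates miss it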;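 also: 0% = plate neutral control median and 100% = total signal loss; the record names both 10 and 1 µM as test concentration; the first replicate is given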
Target sequence (P42568 whole entry, looked up): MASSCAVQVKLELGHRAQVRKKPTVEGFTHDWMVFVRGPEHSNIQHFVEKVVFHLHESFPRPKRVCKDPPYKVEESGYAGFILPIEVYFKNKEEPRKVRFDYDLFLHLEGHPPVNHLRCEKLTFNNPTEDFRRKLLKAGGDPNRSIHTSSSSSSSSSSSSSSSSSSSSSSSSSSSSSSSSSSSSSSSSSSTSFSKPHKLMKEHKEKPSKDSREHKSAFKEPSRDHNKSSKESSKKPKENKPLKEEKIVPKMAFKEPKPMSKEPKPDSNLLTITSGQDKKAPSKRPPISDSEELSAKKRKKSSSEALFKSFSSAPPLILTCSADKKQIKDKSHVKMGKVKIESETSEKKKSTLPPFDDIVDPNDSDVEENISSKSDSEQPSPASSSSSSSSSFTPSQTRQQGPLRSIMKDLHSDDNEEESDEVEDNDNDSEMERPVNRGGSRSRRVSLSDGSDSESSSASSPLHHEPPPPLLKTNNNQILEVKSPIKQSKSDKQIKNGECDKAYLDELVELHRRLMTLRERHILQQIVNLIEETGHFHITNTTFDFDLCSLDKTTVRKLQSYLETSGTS
FGF22 binding – binders of recombinant human FGF22 by thermal shift | calls only at 9.99 µM | Q9HCT0 | SYPRO orange fluorescence; percent of sucrose octasulfate shift, DMSO zero | AID 651658 | 340,000 tested, 1.5% active;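 active = melting point raised past a set limit in the mean and every replicate; inconclusive = no clear call; three in four hits are not shown here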
Target sequence (Q9HCT0 whole entry, looked up): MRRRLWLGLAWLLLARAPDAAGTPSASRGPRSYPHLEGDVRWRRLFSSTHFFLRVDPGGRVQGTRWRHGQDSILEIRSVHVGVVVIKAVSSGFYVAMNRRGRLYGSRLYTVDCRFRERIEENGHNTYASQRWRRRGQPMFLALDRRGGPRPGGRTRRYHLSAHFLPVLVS
rRNA inh HTS – inhibitors of bacterial rRNA selective over humanized ribosomes. E. coli WT GFP vs humanized-ribosome RFP mutants, fluorescence, 24 h; active compounds read low; DMSO median 0, no signal -100. GFP signal change (wild-type ribosome), % (no concentration beside the values). 350,000 tested, 1.6% active. AID 720706;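 active = significant combined selectivity score with lowered wild-type GFP, culture density cut under 30%, mutant RFP and density less affected; inactive = any of these conditions unmet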; also: one replicate is shown; some compounds called inactive have numbers as strong as hits
Ecoli growth – inhibitors of Escherichia coli growth; OD600, 23 h; active compounds read low; OD600 absorbance (concentration not given with the values); 330,000 tested, 0.21% active;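 active = OD600 absorbance below the run mean of sample wells minus 3.6 SD, in any replicate, cut at about 0.56 in these data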;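 also: stock transfer was 300 nL into about 60 µL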
ALR H2O2 inh – blocks human ALR sulfhydryl oxidase activity. purified ALR, DTT oxidation, H2O2 HRP-luminol luminescence. 290,000 tested, 3.8% active. inhibition, % (concentration not given with the values);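 active = mean and each replicate at 75% or more; inconclusive = only one of the two met; inactive = neither met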;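 also: stock transfer was 7.5 nL into about 7.5 µL; 0% = neutral wells and 100% = wells with inactivated enzyme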
Target sequence (P55789 whole entry, looked up): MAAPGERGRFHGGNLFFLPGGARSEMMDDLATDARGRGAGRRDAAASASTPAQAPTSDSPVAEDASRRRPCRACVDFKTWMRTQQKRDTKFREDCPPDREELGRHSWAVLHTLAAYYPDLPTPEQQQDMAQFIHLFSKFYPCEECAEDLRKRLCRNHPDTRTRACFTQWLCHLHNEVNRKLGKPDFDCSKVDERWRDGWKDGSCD
Vif A3G – HIV-1 Vif–A3G interaction blockers – biochemical, TR-FRET, GST-Vif 1-94, biotin-A3G peptide, dose response retest, primary screen (AID 1117319); TR-FRET GST-Vif / biotin-A3G peptide binding; higher % means a stronger effect; test concentration not given here; strong numbers were not always called active; inhibition, %, or IC50 in µM where a hit was titrated; 260,000 tested, 0.57% active;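 active = above the screen mean plus three standard deviations and confirmed in dose response; inconclusive = results disagree or hit not tested in dose response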;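 also: Vif residues 1-94 fused to GST binding biotinylated APOBEC3G peptide 110-148; 0% = full assay without inhibitor and 100% = GST in place of GST-Vif; retest series ran down from 100 µM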
HNF4A DNA FP – change in binding of human HNF4 alpha to DNA | activity change, % at 10 µM | HNF4a-FITC DNA binding, fluorescence polarization, 1 h | AID 1224865 | 360,000 tested, 0.3% active | P41235; in the data active = activity change above about 30%, passing the limit was not always enough;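 also: controls were the assay level and a saturating level of protein; the project sought stronger binding though the title names inhibitors; some compounds called inactive have numbers as strong as hits; positive values seem to mean higher polarization but the record does not say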
rRNA inh HTS OD600 – also measured in rRNA inh HTS; calls as there; OD600 change, %; measured here: OD600 growth;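 optical density of the mix in the first replicate; 0 = DMSO median and -100 = no signal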
rRNA inh HTS RFP – also measured in rRNA inh HTS; calls as there; RFP signal change, %; measured here: RFP humanized mutant strains;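 first replicate; 0 = DMSO median and -100 = no signal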
* = called active by the depositor; i = inactive; ? = inconclusive; . = not tested or not shown.

compound	Ecoli growth	FGF22 binding	rRNA inh HTS RFP	HNF4A DNA FP	MLL AF4-AF9 inh	rRNA inh HTS	ALR H2O2 inh	rRNA inh HTS OD600	Vif A3G
Cc1noc(C)c1S(=O)(=O)N(C)C[C@@H]1Oc2ccc(NC(=O)CCC(F)(F)F)cc2CC(=O)N([C@@H](C)CO)C[C@@H]1C	.	i	-1.2	.	-1.0	5	.	7	.
CCc1ccc(C(=O)NNc2cc(Cl)ccc2Cl)cc1	0.61	i	-2.1	1.8	-3.2	-6	9	-2	-11%
CC1(C)CC(NC(=S)NC(=O)c2cc(Br)ccc2Cl)CC(C)(C)N1	0.7	i	-0.8	-1.0	4.0	-8	.	-11	-6%
Cc1nn(Cc2ccccc2)c2c1C(c1ccncc1)C(C#N)=C(N)O2 (centres undefined)	0.69	.	.	.	.	.	46	.	11%
CC(=Nc1ccccc1C(F)(F)F)c1ccncc1	0.67	i	0.1	2.8	0.4	5	-11	7	-5%
C[C@@H]1CN([C@@H](C)CO)C(=O)c2cccc(NS(=O)(=O)c3ccc(Cl)cc3)c2O[C@@H]1CN(C)Cc1ccc(C(=O)O)cc1	.	i	-2.0	.	-0.3	1	.	4	.
CCc1ccc2[nH]c(=O)c(CN(CCN(C)C)C(=O)Nc3ccccc3)cc2c1	0.76	.	.	5.0	.	.	-12	.	32%
COc1ccc(N(CC(=O)NCC(C)C)S(=O)(=O)c2ccccc2)cc1	0.68	i	-4.2	1.3	0.6	-8	6	-5	-4%
CCCN1[C@H](C(=O)NCC)[C@@H](CO)[C@@H]2Cn3c(ccc(-c4ccc(C(=O)N(C)C)cc4)c3=O)[C@@H]21	.	i	-0.9	.	-0.9	-3	.	3	.
CS(=O)(=O)c1ccc(CNC(=O)[C@]2(C(F)(F)F)C[C@H](CCc3ccccc3)CCCO2)cc1	.	i	-6.8	3.4	2.8	-14	0	-26	.
COc1ccc(C2(CNC(=O)c3cc(OC)c(OC)c(OC)c3)CCCC2)cc1OC	.	i	2.1	-1.1	4.9	0	.	-1	.
CN(C)S(=O)(=O)c1ccc2nc(NC(=O)c3cccs3)sc2c1	0.7	.	.	2.1	.	.	86*	.	3%
O=C(NCc1cccs1)c1ccc(N2CCCC2=O)cc1	0.7	.	.	1.0	.	.	-18	.	3%
C[C@@H]1CN([C@@H](C)CO)S(=O)(=O)c2ccc(C3=CCCCC3)cc2O[C@H]1CN(C)C(=O)c1ccc(F)cc1	.	i	5.3	.	4.5	-4	.	-20	.
C/C=C/c1ccc([C@@H]2[C@H](CO)N(C(=O)C3CCCC3)C23CN(S(C)(=O)=O)C3)cc1	.	i	-1.0	.	0.3	0	.	-2	.
Cc1ccc(CS(=O)(=O)CCC(=O)O)cc1	0.66	i	-3.5	-1.0	-2.0	14	-7	8	.
C[C@@H]1CCCCO[C@@H](CN(C)S(=O)(=O)c2cccs2)[C@H](C)CN([C@H](C)CO)C(=O)c2cc(NS(=O)(=O)c3ccc(Cl)cc3)ccc2O1	.	i	2.2	.	4.7	0	.	0	.
COc1ccc(C(C(=O)NCCC(C)C)N(CCCO)C(=O)c2snc(C(N)=O)c2N)cc1OC (centres undefined)	0.62	i	-0.9	-0.3	-9.3	10	-7	5	.
N/C(=N\NC(=O)Nc1ccccc1)c1ccccn1	0.57	i	3.7	-0.5	.	17	5	3	-7%
Cc1ccc(C(=O)N(C)c2ccc(OCC(=O)N3c4ccc(C)cc4C4CN(C)CCC43)cc2)cc1 (centres undefined)	0.65	.	.	2.4	.	.	-24	.	9%

Next section
compound	Ecoli growth	FGF22 binding	rRNA inh HTS RFP	HNF4A DNA FP	MLL AF4-AF9 inh	rRNA inh HTS	ALR H2O2 inh	rRNA inh HTS OD600	Vif A3G
Cc1ccc(C)c(N(CC(=O)NCC2CCCO2)C(=O)CCC(=O)Nc2nccs2)c1 (centres undefined)	0.69	i	-2.4	-3.5	-0.7	2	1	-2	.
CN(C)C(=O)CSc1n[nH]c(=O)n1CCc1ccccc1	0.69	i	-0.6	-0.5	0.1	8	-2	8	-4%
N/C(=N\OC(=O)CCn1cccc(C(F)(F)F)c1=O)c1ccc(Cl)cc1	0.67	i	-1.2	4.8	0.0	-17	-6	-14	33%
CC(C)CN(C(=O)c1cc(Cl)nc2ccccc12)C1CCS(=O)(=O)C1 (centres undefined)	0.65	i	-2.1	-3.3	0.1	5	.	2	-1%
COc1ccc2c3c([nH]c2c1)[C@H](CO)N(C(=O)C1CCCCC1)CC31CCN(S(C)(=O)=O)CC1	.	i	-1.1	.	1.2	2	.	6	.
CCCCNC(=O)C1(C)CCN1C(=O)c1cc(-c2cccs2)oc1C (centres undefined)	.	i	1.1	-4.0	2.1	0	.	4	.
CO[C@H](CN(C)S(=O)(=O)c1ccc(C)cc1)[C@H](C)CN(C(=O)Nc1ccccc1F)[C@H](C)CO	.	i	-1.1	.	3.2	2	.	-5	.
Cn1cnc2c1c(=O)n(Cc1ccccc1)c(=O)n2C	0.81	i	2.4	-3.6	-2.5	3	-31	0	22%
COc1ccc(C(=O)N2CCN(c3ccc(F)cc3)CC2)cc1S(=O)(=O)NC1CC1	0.71	i	.	6.3	-0.4	.	24	.	8%
Cc1cc(-c2ccccc2)c2c(=O)n(-c3ccccc3)[nH]c2n1	0.68	i	-3.7	3.0	1.9	-12	99*	-11	.
COc1ccccc1CNc1nc2nc(C)cc(=O)n2[nH]1	0.76	.	.	0.1	.	.	.	.	-1%
Brc1ccccc1Cn1cnc2ccccc21	0.64	i	-8.1	2.3	3.0	-29	-8	-28	.
COc1ccc(S(=O)(=O)N(C)C[C@@H]2OCCCC[C@H](C)Oc3ccc(NS(=O)(=O)c4cccs4)cc3C(=O)N([C@H](C)CO)C[C@H]2C)cc1	.	i	3.5	.	2.1	-3	.	-1	.
CCC(CC)C(C(=O)NCc1ccccc1)N1CCN(CCN2CCOCC2)CC1 (centres undefined)	.	i	1.7	-0.4	1.9	11	.	14	.
COc1ccc(-c2csc(NC(=O)C3CCN(c4ncnc5sc(C)c(C)c45)CC3)n2)cc1OC	0.7	i	1.9	4.5	7.1	-1	-7	2	-18%
CC1(C)O[C@@H]2[C@H](O1)[C@@H](CO)O[C@H]2n1ccc(=O)[nH]c1=O	.	i	0.8	-3.3	-3.2	-1	2	6	.
Cc1nnc(SCC(=O)NCc2cccs2)n1-c1ccccc1	0.72	.	.	-0.5	.	.	-9	.	7%
O=C(NCCNc1ccc([N+](=O)[O-])cc1C(F)(F)F)c1ccc(F)cc1	0.71	i	-10	1.2	5.1	-16	-44	-35	27%
Cc1nc(-c2ccc(F)cc2)c(CC(=O)NCC(=O)Nc2ccc(F)c(F)c2)s1	0.67	i	1.1	3.8	6.3	-2	.	-3	29%
Cc1cccc(C)c1N1CC(=O)N(c2c(C)cccc2C)CC1=O	0.71	.	.	0.4	.	.	-6	.	15%

(continued)
compound	Ecoli growth	FGF22 binding	rRNA inh HTS RFP	HNF4A DNA FP	MLL AF4-AF9 inh	rRNA inh HTS	ALR H2O2 inh	rRNA inh HTS OD600	Vif A3G
Cc1c(-c2ccco2)[n+](=O)c2c(n1[O-])CCC2	0.67	.	.	-0.6	.	.	-4	.	?
COc1ccc2oc(C(=O)OCC(=O)NCCN3C(=O)CSC3=O)c(C)c2c1	0.69	i	-4.2	2.1	10	10	-4	-8	14%
CCCCCCNC(=O)c1c(O)c2ccccc2[nH]c1=O	0.69	.	.	0.5	.	.	-9	.	-2%
CN(CC(=O)Nc1cccc(F)c1)C(=O)Cn1c(=O)oc2ccccc21	0.69	i	0.9*	-4.7	-2.7	-17*	.	-2.7*	-4%
O=C1NC(=O)C2(CCCC2C(=O)O)N1 (centres undefined)	0.69	i	-3.5	-1.7	-2.7	5	.	13	-4%
O=C(CCc1nc2ccccc2c(=O)[nH]1)Nc1ccccc1N1CCCC1	0.65	.	-0.1	-0.3	-0.7	-4	48	0	2%
CC(=O)c1ccc(OCCCC(=O)Nc2cc(S(=O)(=O)N(C)C)ccc2C)cc1	0.66	.	.	4.0	.	.	4	.	.
CCC1C(=O)NCCN1C(=O)CCc1nnc(CCc2ccc(OC)cc2)o1 (centres undefined)	0.67	i	3.5	9.1	1.7	12	-4	13	-4%
O=S(=O)(c1ccccc1Cl)N1CCC(O)(c2ccc3c(c2)OCO3)CC1	0.69	i	-7.1	-1.6	-0.6	-23	1	-24	-2%
Nc1ccccc1N1CCN(C(=O)c2ccccc2)CC1	0.71	.	.	-1.9	.	.	33	.	23%
CCn1cc(C(=O)O)c(=O)c2cnc(N3CCN(C(=S)Nc4ccccc4Cl)CC3)nc21	0.54	i	-31	6.2	-6.1	-48	-4	-77	-3%
CO[C@@H]1CN(C)C(=O)c2ccc(NS(C)(=O)=O)cc2OC[C@@H](C)NC[C@@H]1C	.	i	-1.3	.	-2.6	5	.	4	.
Cc1cc(C)cc(OCc2ccc(C(=O)NC3CCOC3=O)o2)c1 (centres undefined)	0.66	i	2.9	-1.5	1.2	5	-24	7	4%
O=C1OCCC1Sc1nnc(-c2cccnc2)n1-c1ccccc1F (centres undefined)	0.63	i	2.6	1.7	0.9	14	0	11	6%
Cc1ccc(CN2C(=O)[C@H]3Cc4c([nH]c5ccccc45)C(C)(C)N3C2=O)cc1	.	i	0.5	0.8	-5.3	-6	-6	-13	.
OC1CN=C2Sc3ccccc3N2C1 (centres undefined)	0.71	.	.	1.4	.	.	-5	.	0%
Cn1c(=O)oc2cc(S(=O)(=O)CCC(=O)N3CCN(c4ccccc4)CC3)ccc21	0.71	i	0.3	2.7	-15	7	-5	8	.
CCOc1cc(/C=C/C(=O)OCC(=O)NCCN2C(=O)CSC2=O)ccc1OCC(C)C	0.66	i	-1.0	-0.1	0.2	3	2	0	-3%
C[C@H]1CCCCO[C@H](CN(C)Cc2ccccc2)[C@@H](C)CN([C@@H](C)CO)C(=O)c2cc(NS(C)(=O)=O)ccc2O1	.	i	-3.9	.	-5.3	3	.	4	.
Cn1c(Cc2cccs2)nnc1SCc1nc2ccccc2[nH]1	0.73	.	.	-1.0	.	.	-4	.	25%

Other compounds.
compound	Ecoli growth	FGF22 binding	rRNA inh HTS RFP	HNF4A DNA FP	MLL AF4-AF9 inh	rRNA inh HTS	ALR H2O2 inh	rRNA inh HTS OD600	Vif A3G
COc1ccc(/C(C#N)=C/c2cccnc2)cc1	.	i	1.7	-0.2	2.5	-14	.	-14	-1%
CN(C)c1cc[n+](CC(=O)Nc2ccc([N+](=O)[O-])cc2Cl)cc1	0.7	.	.	-1.7	.	.	-15	.	26%
CC(C)(C)OC(=O)N1CCC(c2c(C(=O)N3CCN(C(=O)c4ccco4)CC3)cnn2-c2ccc(F)cc2F)CC1	0.7	i	0.3	-4.1	-16	-2	-10	-2	.
CO[C@H](CN(C)S(=O)(=O)c1cccc(Cl)c1)[C@H](C)CN([C@H](C)CO)S(=O)(=O)c1ccc(Cl)cc1	.	i	29	.	-1.7	3	.	-22	.
CC(C)C1Nc2ccc(S(=O)(=O)N3CCOCC3)cc2NC1=O (centres undefined)	0.69	i	2.1	1.7	-0.8	2	-21	1	0%
O=C1CN(C(=O)COc2ccccc2)c2ccccc2N1	0.69	i	1.6	2.7	-0.6	3	1	10	-6%
CCc1nnc(NS(=O)(=O)c2ccc(N=Cc3c(C)[nH]n(-c4ccc(Cl)cc4)c3=O)cc2)s1	.	.	.	-0.2	.	.	57	.	?
CCOc1cc(/C=N\O)cc(Cl)c1OCC	.	.	.	-1.0	.	.	22	.	13%
CCOC(=O)[C@]12CCCC=C1N(CCc1ccc(OC)c(OC)c1)C(=O)[C@H](CC(=O)N1CCN(C(=O)C3CC3)CC1)C2	.	i	5.1	1.3	1.0	7	.	4	.

Not all compounds are listed (hit frequency here may not be typical).
